Compound activity deposited in PubChem by Southern Research Institute.
total CFTR: compounds raising F508del-CFTR protein level – cell-based, HeLa F508del-CFTR, immunofluorescence, viability, primary screen (AID 1224863) | HeLa F508del-CFTR, immunofluorescence total CFTR, 24 h; by the record results were divided by relative cell number; some inactives read as strong as hits | calls, or highest fold increase where a dose series was run | 10,000 compounds, 0.1% hits; in the data nearly all actives have a first-pass fold increase above 1.5; a few of its hits are not listed in these tables;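 further: total CFTR protein by anti-CFTR immunofluorescence in fixed cells; first pass at 25 µM or 10 µg/mL by library and series up to twice that; 1 = untreated cells; first-pass hits also needed half or more of the cells alive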
total CFTR fold 25 µM: also measured in total CFTR; calls as there; fold increase; measured here: primary screen single dose 25 uM; library dosed in µM
total CFTR fold 10 ug/mL: also measured in total CFTR; calls as there; fold increase; measured here: primary screen 10 ug/mL
total CFTR viability 25 µM: also measured in total CFTR; calls as there; viability, %; measured here: primary viability 25 uM; library dosed in µM;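 0% = killed and 100% = untreated cells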
total CFTR viability 10 ug/mL: also measured in total CFTR; calls as there; viability, %; measured here: primary viability 10 ug/mL;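 0% = killed and 100% = untreated cells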
The depositor's hits bear a star; i = inactive; · = no result given; & = joins results of further samples.

SMILES | total CFTR | total CFTR fold 10 ug/mL | total CFTR viability 10 ug/mL | others
CCOC(=O)c1sc2nc(C(C)(C)C)nc(C)c2c1C | i | 0.89 | 83
O=C(OCc1cc(=O)n2ccsc2n1)C1=NN(C2CCS(=O)(=O)C2)C(=O)CC1 (stereo not drawn) | i | 0.97 | 97
Cn1c(SCC(=O)C(C)(C)C)nc2ccsc2c1=O | i | 0.93 | 87
O=S(=O)(Cc1ccc(F)cc1)N1CC=C(c2c[nH]c3ncccc23)CC1 | i | 1 | 106
CC#C[C@]1(O)CC[C@H]2[C@@H]3CCC4=CC(=O)CCC4=C3[C@@H](c3ccc(N(C)C)cc3)C[C@@]21C | i | · | · | total CFTR fold 25 µM=0.9;total CFTR viability 25 µM=75
CCN(CC)S(=O)(=O)N1CCCC1c1ccc2c(c1)OCCO2 (stereo not drawn) | i | 0.92 | 90
N#CCCC(C#N)Cn1nnc(-c2ccc(Cl)cc2)n1 (stereo not drawn) | i | 1 | 101
O=S(=O)(NCCc1cccnc1)c1cc(Br)ccc1Br | i | 0.97 | 97
CCN(CC)CCOC(=O)C(c1ccccc1)C1CCCCC1 (stereo not drawn) | i | · | · | total CFTR fold 25 µM=1.2;total CFTR viability 25 µM=85
CC(=O)c1cc2c(cc1NC(=O)CC1c3ccccc3C=CN1C(C)=O)OCO2 (stereo not drawn) | i | 1 | 63

The final two records of the part before lead into the next:
SMILES | total CFTR | total CFTR fold 10 ug/mL | total CFTR viability 10 ug/mL | others
CCN(CC)CCOC(=O)C(c1ccccc1)C1CCCCC1 (stereo not drawn) | i | · | · | total CFTR fold 25 µM=1.2;total CFTR viability 25 µM=85
CC(=O)c1cc2c(cc1NC(=O)CC1c3ccccc3C=CN1C(C)=O)OCO2 (stereo not drawn) | i | 1 | 63
Cc1cc(C)cc(Cn2ncc(Cl)c(Cl)c2=O)c1 | i | 1.1 | 76
C=C(Cl)COC(=O)c1cc(=O)[nH]c2ccccc12 | i | 0.89 | 100
Cc1cc(COC(=O)c2sccc2S(=O)(=O)N2CCCC2)on1 | i | 1.1 | 101
CC(C)CN1C(=O)C(=O)N(CCN2C(=O)c3ccccc3C2=O)C1=O | i | 0.98 | 98
CC(C)C(C)(C#N)NC(=O)CN1C(=O)NC2(CCCCC2)C1=O (stereo not drawn) | i | 1.1 | 94
O=C(NC1(c2ccccc2)CCC1)c1cc2ccccc2oc1=O | i | 0.97 | 86
O=C(NCC1CCCO1)C1CCN(Cc2nc(C3CC3)no2)CC1 (stereo not drawn) | i | 1 | 104
Cc1occc1CN | i | 0.99 | 92
O=C(COC(=O)/C(=C/c1cccs1)c1cccs1)NC12CC3CC(CC(C3)C1)C2 | i | 0.99 | 93
O=C(c1cc2c(cc1Cl)N1CCCCCC1=NS2(=O)=O)N1CCc2ccc([N+](=O)[O-])cc21 | i | 1.2 | 97
Clc1cc(COc2ccc3c(c2)OCO3)cc2c1OCCO2 | i | 0.99 | 89
CC(C)C(C)NC(=O)C1CC(=O)N(c2ccc3c(c2)CCC3)C1 (stereo not drawn) | i | 1.1 | 90
N#C/C(=C/c1cccnc1)c1ccc(C(F)(F)F)cn1 | i | 1.1 | 82
COc1ccc(C2=C(c3nc4ccccc4[nH]3)CC(c3ccccc3)=NN2)cc1 | i | 0.98 | 82
Nc1nc2ncc(CNc3ccc(C(=O)N[C@@H](CCC(=O)O)C(=O)O)cc3)nc2c(=O)[nH]1 | i | · | · | total CFTR fold 25 µM=1.1;total CFTR viability 25 µM=73
CCOC(=O)c1ccc(S(=O)(=O)N2CCN(CCS(C)(=O)=O)CC2)o1 | i | 1.1 | 91
CC(=O)Nc1c(I)c(NC(C)=O)c(I)c(C(=O)O)c1I | i | 1.1 | 108 | total CFTR fold 25 µM=1.2;total CFTR viability 25 µM=109
O=C1C2CC=CCC2C(=O)N1CCOc1ccc(Cl)cc1Br (stereo not drawn) | i | 0.95 | 92
CCc1ccc(C(=O)NC(C)C(C)C)o1 (stereo not drawn) | i | 0.98 | 93
N#CCSc1ncc(-c2ccccc2)[nH]1 | i | 0.94 | 82
CC(C)CN(c1ncnc2sc3c(c12)CCC3)C1CC1 | i | 1.1 | 87
O=[N+]([O-])c1ccc2c(c1)N(S(=O)(=O)c1cc(C(F)(F)F)ccc1Cl)CC2 | i | 1 | 84
CC1(c2cc(F)ccc2F)NC(=O)N(Cc2c(F)c(F)c(F)c(F)c2F)C1=O (stereo not drawn) | i | 0.89 | 96
COc1cc(OC)c(NS(=O)(=O)c2ccc(F)cc2[N+](=O)[O-])cc1Cl | i | 0.85 | 78
COc1ccc(OCC(O)CN2CCN(c3ccc(F)cc3)CC2)cc1 (stereo not drawn) | i | 1 | 96
CN(CC12CC3CC(CC(C3)C1)C2)C(=O)C1CCN(C(=O)C2CC2)CC1 | i | 0.83 | 90
COCCN1C(=O)c2ccccc2N2C(=O)CCC12C(=O)OCCCn1c(=O)[nH]c2ccccc21 (stereo not drawn) | i | 1.1 | 105
C=C(Cl)CSc1nnc(C2CCS(=O)(=O)C2)n1C (stereo not drawn) | i | 1 | 101
Cc1nn(CN2CCN(C(=O)OC(C)(C)C)CC2)c(=S)n1C1CC1 | i | 1 | 100
c1ccc(-c2cc3c(N4CCC4)ncnc3s2)cc1 | i | 0.95 | 83

The last 2 entries of the section before are carried over, then new ones follow.
SMILES | total CFTR | total CFTR fold 10 ug/mL | total CFTR viability 10 ug/mL | others
Cc1nn(CN2CCN(C(=O)OC(C)(C)C)CC2)c(=S)n1C1CC1 | i | 1 | 100
c1ccc(-c2cc3c(N4CCC4)ncnc3s2)cc1 | i | 0.95 | 83
O=C1CC2(CCCC2)C(=O)N1CN1CCN(Cc2cc(=O)n3ccsc3n2)CC1 | i | 1.1 | 99
COc1cc([C@@H]2c3cc4c(cc3[C@@H](O[C@@H]3O[C@@H]5CO[C@@H](C)O[C@H]5[C@H](O)[C@H]3O)[C@H]3COC(=O)[C@H]23)OCO4)cc(OC)c1O | i | · | · | total CFTR fold 25 µM=0.97&1.1;total CFTR viability 25 µM=96&81
CN(C)c1nc(N(C)C)nc(N(C)C)n1 | i | · | · | total CFTR fold 25 µM=1.1&1.2&1.1;total CFTR viability 25 µM=113&87&98
CS(=O)(=O)CCCN | i | 1.1 | 101
COC(=O)c1ccc(C2NC(=O)NC(C)=C2C(=O)c2ccc(Cl)cc2)cc1 (stereo not drawn) | i | 1 | 87
O=C1CCc2c(OCc3cccc4ccccc34)cccc21 | i | 0.88 | 68
CC1CCCC(NC(=O)c2ccc(S(=O)(=O)N3CCOCC3)o2)C1C (stereo not drawn) | i | 1 | 104
O=C(CN1CCN(C(=O)C2CC(=O)N(c3ccc4c(c3)OCCO4)C2)CC1)NC1CC1 (stereo not drawn) | i | 1 | 98
CN(C)S(=O)(=O)c1ccc(S(=O)(=O)NCCC2CCCO2)cc1 (stereo not drawn) | i | 1.1 | 104
O=S(=O)(c1ccc2c(c1)CCCC2)N(CC1CCOC1)C1CC1 (stereo not drawn) | i | 1.1 | 100
CCONC(=O)c1sc2nc(C3CC3)nc(C)c2c1C | i | 0.89 | 103
c1nc(Nc2ccc(-n3cnnn3)cc2)c2c3c(sc2n1)CCCC3 | i | 1.1 | 88
Cc1ccoc1C(=O)NC1CCC(C)CC1 (stereo not drawn) | i | 1.1 | 108
c1ccc2c(c1)CCN2Cc1ccc(CNc2ccc3nnnn3n2)cc1 | i | 1.1 | 76
CC1CCCN(CCCNC(=O)C(NC(=O)C23CC4CC(CC(C4)C2)C3)C(C)C)C1 (stereo not drawn) | i | 1.1 | 101
Cc1cc(C(=O)Cn2cnc(C#N)n2)c(C)s1 | i | 0.96 | 100
Cc1cc(C(=O)COc2cc(C(F)(F)F)cc(C(F)(F)F)c2)c(C)n1Cc1ccc2c(c1)OCO2 | i | 1.1 | 90
CC(Sc1nnc2n1CCCCC2)c1nnc(-c2ccc([N+](=O)[O-])cc2)o1 (stereo not drawn) | i | 1.1 | 100
CCn1nc(C(=O)O)c(=O)c2cc3c(cc21)OCO3 | i | · | · | total CFTR fold 25 µM=0.88;total CFTR viability 25 µM=101
Cc1c(-c2nc3ccc(Br)cc3c(=O)[nH]2)oc2ccccc12 | i | 1 | 99
COc1cc(Br)c(S(=O)(=O)Nc2ccc3c(c2)CCC3)cc1OC | i | 0.82 | 96
O=[N+]([O-])c1cccc(CSc2nc3cc(C(F)(F)F)ccc3n2Cc2ccccc2)c1 | i | 0.95 | 89
CN(C)c1nc(N)nc(CSCCN2C(=O)CNC2=O)n1 | i | 1 | 109
CNC(=O)CN(C)c1ncnc2sc3c(c12)CCCC3 | i | 1 | 94
N#Cc1ccc(OCCOc2ccc(C#N)cc2)cc1 | i | 1.1 | 100
CC1CN(Cn2nc(C3CC3)n(-c3ccccc3)c2=S)C(C)CO1 (stereo not drawn) | i | 0.9 | 95
O=S(=O)(c1cccc(Cl)c1Cl)N1CCN(c2nccs2)CC1 | i | 0.93 | 88
CC(Oc1ccccc1)C(=O)N[C@@H]1C(=O)N2[C@@H]1SC(C)(C)[C@@H]2C(=O)O (stereo partly drawn) | i | · | · | total CFTR fold 25 µM=1.1;total CFTR viability 25 µM=83
CN(Cc1cnn(-c2ccccc2)c1)Cn1ncc2ccccc2c1=O | i | 1.2 | 101
CC(C)(C)C(=O)CSc1nnc(CC2CCS(=O)(=O)C2)o1 (stereo not drawn) | i | 1 | 84
CC(C)NS(=O)(=O)c1ccc(Sc2nnc3ccccn23)c([N+](=O)[O-])c1 | i | 1.1 | 101
CC1Cc2cc(S(N)(=O)=O)ccc2N1Cc1ccc(Cl)cc1Cl (stereo not drawn) | i | 0.94 | 84
NC(N)=NS(=O)(=O)c1ccc(N)cc1 | i | · | · | total CFTR fold 25 µM=1;total CFTR viability 25 µM=84
CC(C(=O)NCC1CCCC1)S(C)(=O)=O (stereo not drawn) | i | 1 | 98
COCCCN1C(=O)C(=O)/C(=C(\O)c2ccc(C)cc2)C1c1ccc(C(C)C)cc1 (stereo not drawn) | i | 1.1 | 105
CN(CC(=O)c1c[nH]c(C(=O)N2CCCC2)c1)C1CCCCC1 | i | 1.1 | 96
Nc1nnc(SCC(=O)Nc2ccnn2C2CCCC2)n1CC(=O)Nc1ccnn1C1CCCC1 | i | 0.99 | 106
CCN(CC(=O)NC(C)C)C(=O)COC(=O)c1cc(C)n(-c2cc(C)on2)c1C | i | 1.1 | 88
CS(=O)(=O)NC1CCN(CC(=O)NC2CC2)CC1 | i | 1.2 | 105
CCN(C(=O)Cn1nnn(-c2cccs2)c1=O)C1CCS(=O)(=O)C1 (stereo not drawn) | i | 1 | 96

By substructure: the compounds so far with a CF3 group (4)
SMILES | total CFTR | total CFTR fold 10 ug/mL | total CFTR viability 10 ug/mL | others
N#C/C(=C/c1cccnc1)c1ccc(C(F)(F)F)cn1 | i | 1.1 | 82
O=[N+]([O-])c1ccc2c(c1)N(S(=O)(=O)c1cc(C(F)(F)F)ccc1Cl)CC2 | i | 1 | 84
Cc1cc(C(=O)COc2cc(C(F)(F)F)cc(C(F)(F)F)c2)c(C)n1Cc1ccc2c(c1)OCO2 | i | 1.1 | 90
O=[N+]([O-])c1cccc(CSc2nc3cc(C(F)(F)F)ccc3n2Cc2ccccc2)c1 | i | 0.95 | 89

Later entries
SMILES | total CFTR | total CFTR fold 10 ug/mL | total CFTR viability 10 ug/mL | others
Cc1ccsc1CNC(=O)CNC(=O)C1CC1 | i | 0.93 | 94
Cn1cc(S(=O)(=O)NC2CCOc3ccccc32)c(=O)n(C)c1=O (stereo not drawn) | i | 1 | 102
Cc1sc2nc(C(C)Sc3ncnc4ccsc34)[nH]c(=O)c2c1C (stereo not drawn) | i | 1 | 87
c1ccc2oc(CN3CCC4(CC3)OCCO4)nc2c1 | i | 0.96 | 102
Cc1occc1-c1nnc(SCC(=O)NC(=O)NCc2ccco2)o1 | i | 0.96 | 96
Cc1nn(Cc2csc(-c3cccs3)n2)c(C)c1[N+](=O)[O-] | i | 1.1 | 84
CC1CC(OC(=O)c2cc3c(s2)CCCCC3)C(=O)O1 (stereo not drawn) | i | 0.92 | 94
CC(C)c1noc(CN2CCN(c3nc(-c4ccccc4)c4ccccc4n3)CC2)n1 | i | 1 | 94
O=C1c2ccccc2NC(c2ccc(N3CCCCCC3)cc2)N1C1CC1 (stereo not drawn) | i | 0.97 | 83
CCOC(=O)C(NC(=O)CCc1c(C)nc(SC)nc1C)C(=O)OCC | i | 1.1 | 81
COc1ccc(-c2cc(-c3nnc(C4CCC4)o3)[nH]n2)cc1 | i | 0.92 | 99
CCN(CC)c1ncc(CNC2CC(C(F)(F)F)CC(C(F)(F)F)C2)s1 (stereo not drawn) | i | 0.97 | 97

Sorted by molecular weight (largest number first): part of the list above.
SMILES | total CFTR | total CFTR fold 10 ug/mL | total CFTR viability 10 ug/mL | others
O=C1c2ccccc2NC(c2ccc(N3CCCCCC3)cc2)N1C1CC1 (stereo not drawn) | i | 0.97 | 83
Cn1cc(S(=O)(=O)NC2CCOc3ccccc32)c(=O)n(C)c1=O (stereo not drawn) | i | 1 | 102
c1ccc2oc(CN3CCC4(CC3)OCCO4)nc2c1 | i | 0.96 | 102

Some of the compounds tested (hit frequency here may not be typical).
